# Screening results (PubChem BioAssay)
# StopGo reporter: FMDV 2A StopGo reporter, luciferase signal; human cells with a luciferase reporter of 2A StopGo recoding; control for the full effect not named in the record; Potency, µM (titrated, usually from 57.9 µM), for the others: at the highest dose signal change, negative = less light; 410,000 tested, 1.2% active; AID 1159524; active = well fitted falling curve with a large enough effect; inconclusive = small, poorly fitted or top-dose-only effect; inactive = no such curve, though single readings can be large or run the other way; tested in HEK293T cells; further: on the % scale 0 is the no-effect control and ±100 the full control effect; nearly all actives have a fitted effect of over 45% in size; luciferase light after 4 h
# RE007 growth inh: less growth of the S. pombe RE007 Vpr strain | S. pombe RE007 Vpr strain, BacTiter-Glo ATP luminescence, 24 h; control for the full effect not named in the record | AID 651644 | 360,000 tested, 0.21% active | Potency, µM (top dose mostly 92.2 µM), inactives show at the highest dose activity change, negative = less growth; active = well fitted falling curve with a large enough effect; inconclusive = small, poorly fitted or top-dose-only effect; inactive = no such curve, though single readings can be large or run the other way;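 further: on the % scale 0 is the no-effect control and ±100 the full control effect; nearly all actives have a fitted effect of over 50% in size; the assay follows cell death caused by Vpr and the record does not say whether a fall means rescue or toxicity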
#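 Fission yeast strain RE007, carrying one chromosomally integrated HIV-1 vpr copy, was seeded at OD 0.01 in PMG+AL medium with 23 nL pinned compound. After 24 h at 30 °C and 99% humidity, viability was read by BacTiter-Glo luminescence.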
# Cruzain inh Det: cruzain (T. cruzi) inhibition with detergent; P25779; purified cruzain, Z-FR-AMC fluorescence, 0.01% Triton; Potency, µM, inactives show max response, negative = inhibition, usual class: inhibitors; 200,000 tested, 0.43% active; AID 1478; active means well fitted curve in the direction sought with a large enough effect; inconclusive means small, poorly fitted or top-dose-only effect, or another doubt; inactive means no such curve, though single readings can be large; an effect the other way counts as inactive or inconclusive;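 further: plate controls were neutral wells for no effect and buffer without enzyme for full effect; nearly all actives have a fitted effect of over 40% in size; top concentration of the series not given in the record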
# Target sequence (P25779 123-467 limits assumed): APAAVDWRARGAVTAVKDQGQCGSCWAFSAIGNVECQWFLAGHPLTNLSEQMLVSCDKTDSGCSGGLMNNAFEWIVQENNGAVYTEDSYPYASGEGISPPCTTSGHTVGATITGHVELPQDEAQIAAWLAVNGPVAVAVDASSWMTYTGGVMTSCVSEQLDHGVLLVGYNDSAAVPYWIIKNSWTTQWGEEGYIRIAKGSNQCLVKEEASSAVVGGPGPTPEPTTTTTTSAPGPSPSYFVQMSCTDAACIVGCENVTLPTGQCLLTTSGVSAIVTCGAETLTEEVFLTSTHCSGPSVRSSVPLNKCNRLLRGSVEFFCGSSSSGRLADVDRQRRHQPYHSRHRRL
#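 Cruzain (1.5 nM) preincubated 15 min at RT with compound in 100 mM sodium acetate pH 5.5, 5 mM DTT, 0.01% Triton X-100. Reaction started with 2 uM Z-FR-AMC; AMC fluorescence (ex 360/em 450 nm) change over 60 s gave rate.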
# Cruzain noTriton: inhibitors of Trypanosoma cruzi cruzain without detergent. P25779. purified cruzain, Z-FR-AMC fluorescence, no detergent. Potency, µM, for the others: max response, negative = inhibition, hits mostly inhibitors. 200,000 tested, 2.3% active; active means well fitted curve in the direction sought with a large enough effect; inconclusive means small, poorly fitted or top-dose-only effect, or another doubt; inactive means no such curve, though single readings can be large; an effect the other way counts as inactive or inconclusive;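 further: plate controls were enzyme without inhibitor for no effect and buffer without enzyme for full effect; nearly all actives have a fitted effect of over 40% in size; top concentration of the series not given in the record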
#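 Purified cruzain at 1.5 nM, pre-incubated 15 min with compound at room temperature in 100 mM sodium acetate pH 5.5, 5 mM DTT, 0.00005% Triton X-100. Reaction started with 2 uM Z-FR-AMC; AMC fluorescence increase over 60 s gives rate.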
# Lassa entry inh: blocks Lassa virus binding to or entry into cells | AID 540256 | 300,000 tested, 1.2% active | Potency, µM (highest dose often 37.9 µM), for the others: at the top dose activity change, negative = inhibition, actives largely listed as inhibitors | Lassa virus pseudotype entry inhibition, cell reporter; control for the full effect not named in the record; active means well fitted inhibition curve with a large enough effect; inconclusive means small, poorly fitted or top-dose-only effect, or effect the other way; inactive means flat fitted curve, though single readings scatter; tested in HEK293 cells; further: on the % scale 0 is the no-effect control and ±100 the full control effect; nearly all actives have a fitted effect of over 50% in size; luciferase read-out
# MARV entry inh: inhibitors of Marburg virus binding or cell entry | Marburg virus pseudotyped entry inhibition, cell reporter; control for the full effect not named in the record; about a third of the inactives were read at about 46 µM | Potency, µM (titrated, usually from 37.8 µM), for inactives: at the highest dose activity change, negative = inhibition, usual class: inhibitors | 300,000 tested, 1.8% active; active = well fitted inhibition curve with a large enough effect; inconclusive = small, poorly fitted or top-dose-only effect, or effect the other way; inactive = flat fitted curve, though single readings scatter; tested in HEK293 cells; about a fifth of its hits are not listed in these tables; further: on the % scale 0 is the no-effect control and ±100 the full control effect; luciferase read-out
# NS1 inh: blocks influenza NS1 protein function. S. cerevisiae slowed by influenza A NS1, growth recovery by OD600. Potency, µM (titrated, usually from 46.1 µM), without a hit: at the top dose activity, positive = more growth. 270,000 tested, 0.4% active. AID 2326; further: actives are rising curves; nearly all actives have a fitted effect of over 50% in size
#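 Recovery from NS1-induced slow growth read by OD600 in budding yeast switched to galactose assay medium (pH 6.0, -URA) at 1:100 dilution. Compound 23 nl per well; the matching strain lacking NS1 serves as control.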
# SARS PLP yeast: blocks SARS-CoV papain-like protease in a yeast assay; S. cerevisiae expressing SARS-CoV PLpro, growth rescue; control for the full effect not named in the record; Potency, µM (top dose mostly 32.9 µM), without a hit: at the highest dose activity, positive = growth rescue; 330,000 tested, 0.19% active; AID 485353; further: 0% is about no effect; nearly all actives have a fitted effect of over 55% in size; growth read by luminescence after 48 h
# Starred values were filed as active, the others as inactive; ? = inconclusive; nt = no result given; & = joins results of further samples; [ ] = remark or other dose. Unless noted, the call rests on the fitted dose curve; in most records, active means well fitted rising curve with a large enough effect; inconclusive means small, poorly fitted or top-dose-only effect; inactive means no such curve, though single readings can be large or run the other way. Potency means the concentration at half of the fitted maximal effect.
SMILES,StopGo reporter,RE007 growth inh,Cruzain inh Det,Cruzain noTriton,Lassa entry inh,MARV entry inh,NS1 inh,SARS PLP yeast
COCCCNC(=O)C(=O)NCC(c1ccco1)N1CCN(c2ccc(OC)cc2)CC1 (stereo not drawn),14%,-6%,nt,nt,2%[46.1 µM],8%[46.1 µM],1%,8%
CCOC(=O)/C(C#N)=N/Nc1c(C)n(C)n(-c2ccccc2)c1=O,-4%,6%,nt,nt,-25%[46.1 µM],7%[46.1 µM],nt,0%
Cc1ccccc1Cn1nc(C)c(NC(=O)c2cc(-c3cccs3)on2)c1C,-28%,2%,-4.0%,-6%,-27%,8%,-34%,1%
COc1cccc2sc(N3CCN(C(=O)c4ccco4)CC3)nc12,7%,5%,nt,nt,5%,-8%,nt,7%
CCc1cccc(C)c1NC(=O)CSc1nc2ccccc2nc1N1CCOCC1,?,nt,-9.0%,?,?,?,nt,nt
CCOc1ccc(-c2[nH]ncc2Oc2ccccc2OCC)c(O)c1,-23%,-13%,-10%,-9%,-19%,?,-179%,-25%
Cc1cccc(-n2c(CNC(=O)Cc3ccccc3)n[nH]c2=S)c1,4%,8%,nt,nt,15%,?,nt,-7%
COc1cccc(OC)c1C(=O)NC(=S)N1CCN(c2ccc(C(F)(F)F)cc2[N+](=O)[O-])CC1,?,-10%,2.1%,9%,?,?,10%,-22%
CC(=O)c1cccc(NC(=O)Cn2ccn3nc(-c4ccccc4)cc3c2=O)c1,2%,nt,-0.2%,-1%,13%[46.1 µM],nt,nt,nt
CCOC(=O)C1(CC2CC2)CCN(Cc2cnc(N(C)C)s2)CC1,-10%,-10%,nt,nt,nt,nt,-2%,-1%
CC(=O)c1ccc(NCC2COc3ccccc3O2)c([N+](=O)[O-])c1 (stereo not drawn),0%,-2%,nt,nt,?,?,nt,-4%
O=C(Nc1cccnc1N1CCOCC1)c1cccs1,-12%,-20%,nt,nt,1%,-7%,7%,1%
CCc1ccc(Nc2nnc(-n3nc(C)cc3C)c3ccccc23)cc1,5%,nt,-2.6%,13%,?,-18%[46.1 µM],nt,nt
CCOC(=O)c1sc(NC(=O)CSc2nc(C)cc(C)n2)c(C#N)c1C,?,-1%,-5.8%,3%,0%,-19%,3%,-1%
CN(C)CCNC(=O)NC1CCCCC1,-18%,-3%,0.4%,-2%,-5%,?,-1%,2%
O=c1cc(-c2ccccc2)n2c(SCc3ccccc3)nnc2[nH]1,12%,nt,0.5%,-3%,24%[46.1 µM],nt,nt,nt
CCN(CC(=O)NCc1cccs1)C(=O)CCC(=O)c1ccc(C)cc1,5%,2%,nt,nt,-10%,11%,nt,-3%
COc1ccccc1C(=O)Oc1ccc(N2C(=O)CCC2=O)cc1,-5%,-6%,7.3%,-8%,-7%,9%,-7%,-3%
CCN(CC)c1cc(C)c2cc(NC(=O)c3ccc(OC)c(OC)c3)ccc2n1,0%,nt,-9.9%,-4%,?,?,nt,nt
Cc1ccc(NC(=O)COc2cccc(Oc3ccccc3)c2)cc1S(=O)(=O)N1CCOCC1,-29%,-27%,nt,nt,?,?,nt,5%
COc1ccc(/C=C/CN2CCCC(C(=O)c3ccc(OC)c(F)c3)C2)cc1 (stereo not drawn),?,6%,nt,nt,nt,10µM*,1%,0%
CCOC1=CC(=O)OC(c2ccccc2)C1 (stereo not drawn),-9%,9%,nt,nt,6%[46.1 µM],2%[46.1 µM],nt,nt
CCOC(=O)N1CCC(NC(=O)c2cc3cc4cc(OC)ccc4nc3o2)CC1,0%,-7%,-13%,?,-7%,?,-10%,-8%
CCOC(=O)C1CCN(C(=O)c2ccc(Cl)c(S(=O)(=O)N3CCCC3)c2)CC1,74%[activator],9%,nt,nt,-3%,0%,-4%,2%
COc1cc(CNCc2cccc(OC)c2OC)cc(OC)c1,-19%,-4%,nt,nt,nt,nt,?,5%
c1ccc(-c2cc3ccccc3[nH]2)cc1,19%,-20%[18.4 µM],nt,nt,nt,nt,-21%,-5%
COc1ccc(C(C[N+](=O)[O-])c2c(C)[nH]n(-c3ccccc3)c2=O)cc1 (stereo not drawn),-1%,11µM*,nt,nt,4%,-10%[46.1 µM],-75%,-10%
CC(NC(=S)Nc1cccc(F)c1)C(c1cccs1)N1CCOCC1 (stereo not drawn),-15%,23%,nt,nt,-12%,-29%[46.1 µM],-7%,2%
O=C(C1=C[C@@H](c2ccc(C(F)(F)F)cc2)C[C@@H](OCCCCO)O1)N1CCN(Cc2ccc3c(c2)OCO3)CC1,-21%,-10%,nt,nt,nt,nt,-5%,0%
COc1ccc(/C=C/C(=O)NC(=S)NCc2ccccc2)cc1OC,-26%,-7%,nt,nt,?,?,0%,0%
CCOc1ccc(NC(=O)CC2C(=O)NCCN2C(=O)c2ccc(Cl)cc2)cc1 (stereo not drawn),9%,-17%,nt,nt,nt,2%[46.1 µM],2%,0%
CCCCCCCCCCCCn1ccc(=N)cc1,18µM*,11µM*,nt,nt,?,?,-92%,-4%
COc1ccccc1Cn1c(CNS(=O)(=O)c2cccc([N+](=O)[O-])c2)nc2cccnc21,29%,nt,-1.1%,-8%,3%[46.1 µM],nt,nt,nt
CCc1cc2cc(C)cc(C)c2nc1Cl,37%[activator],9%,nt,nt,4%,-1%[46.1 µM],-2%,0%
CCn1c(SCC(=O)N2CCN(c3ccc(Cl)cc3)CC2)nc2ccccc2c1=O,-15%,14%&-2%,-1.7%,11%,-34%,-13%&-13%,-18%,-1%
Cc1cc(/C=C2\SC(=S)N(C)C2=O)c(C)n1-c1ccccc1O,?,-9%,nt,nt,?,?,nt,nt
CC(CNC(=O)c1ccco1)NC(=O)c1ccco1 (stereo not drawn),-16%,12%,nt,nt,21%,5%[46.1 µM],1%,1%
COc1ccc(N2CCN(C(=S)Nc3ccccc3)CC2)cc1,16%,-15%,nt,nt,?,?,-4%,-7%
COc1cc(Cl)c(S(=O)(=O)NCc2ccccn2)cc1Cl,39%[activator],-1%,3.0%,-3%,2%,-14%,-6%,5%
O=C1CCCCC1(CCc1ccncc1)CCc1ccncc1,?,-4%,nt,nt,-10%,nt,nt,nt
COc1cc(C2NC(=O)N(C)C(C)=C2C(=O)OCc2ccccc2)cc(Br)c1O (stereo not drawn),-27%,1%,nt,nt,nt,nt,-1%,6%
Cc1cc(C)c(C(CC(=O)c2cccs2)C(C#N)C#N)c(C)c1 (stereo not drawn),?,6%,-8.2%,18%,-17%,?,-20%,-50%
O=C(CCCOc1ccc(Cl)cc1Cl)Nc1ncccn1,31%[activator],19%,nt,nt,?,-10%[46.1 µM],-8%,-3%
Cc1ccc(NC(=O)CS(=O)CC(=O)Nc2cnc3ccccc3c2)cc1Cl (stereo not drawn),11%,6%,nt,nt,nt,-16%[46.1 µM],12%,-2%
COc1ccc(CN2CCNC(=O)C2CC(=O)NCCCC2CCCC2)c(F)c1 (stereo not drawn),10%,-5%,nt,nt,-17%,1%,0%,-2%
COC(=O)[C@H](C)NC(=O)NCc1ccccc1F,-5%,20%,7.9%,-1%,24%,19%,-6%,-5%
CCC(C)C(NC(=O)c1ccccc1NC(=O)c1ccc(OC)cc1)C(=O)NCCCn1ccnc1 (stereo not drawn),-4%,0%,nt,nt,2%,-11%[46.1 µM],-11%,3%
COC(=O)C(Cc1c[nH]c2ccccc12)NC(=O)c1cccs1 (stereo not drawn),49%[activator],5%,nt,nt,nt,nt,0%,-3%
O=S(=O)(CS(=O)(=O)Oc1ccccc1)Oc1ccccc1,42%[activator],5%,nt,nt,15%,-1%,nt,nt
Cc1ccc(/C=C/C(=O)Nc2ccccc2C(N)=O)cc1,-19%,-24%,-4.3%,-9%,?,13µM*,2%,-20%
NC(=O)C(c1ccc(Cl)cc1Cl)c1ncc(C(F)(F)F)cc1Cl (stereo not drawn),?,26%,0.0%,8%,-15%,-15%,19%,-4%
O=C(O)c1ccc(CSc2nnc(-c3ccccc3)n2-c2ccccc2)cc1,-13%,16%,nt,nt,-7%,-2%[46.1 µM],-1%,-1%
Cc1nn(-c2ccc(F)cc2)c(Cl)c1C(=O)N(C)CC(=O)Nc1cccc(F)c1,?,16%,nt,nt,-20%,?,nt,2%
O=C(COc1ccccc1Cl)NCCNC(=O)c1ccccn1,6%,4%,nt,nt,8%[46.1 µM],3%[46.1 µM],-14%,-2%
Cc1ccc(C(=O)c2c[nH]c(C(=O)NCCCN3CCOCC3)c2)cc1,-9%,-4%,-1.7%,-1%,2%,0%,-2%,3%
CCC(CC)NC(=O)C1CC(=O)N(CCc2ccc(F)cc2)C1 (stereo not drawn),1%,-10%,nt,nt,nt,nt,10%,1%
COc1cccc(-n2c(SCC(=O)Nc3c(C)cc(C)cc3C)nc3c([nH]c4ccccc43)c2=O)c1,-5%,nt,-0.9%,-24%,?,nt,nt,nt
CCCCN(Cc1ccccc1)S(=O)(=O)c1c(N)n(C)c(=O)n(C)c1=O,-16%,11%,nt,nt,6%,20%,3%,4%
Nc1ccc(NC(=O)CCN2CCOCC2)cc1,-3%,6%,nt,nt,3%,5%,21%,7%
CNC(=S)N1N=C(c2ccc(Br)cc2)CC1c1ccc(OC)cc1 (stereo not drawn),0%,9%,-4.9%,?,?,?,22µM*,0%

# (continued)
SMILES,StopGo reporter,RE007 growth inh,Cruzain inh Det,Cruzain noTriton,Lassa entry inh,MARV entry inh,NS1 inh,SARS PLP yeast
Cc1oc(-c2cccc(Cl)c2)nc1CS(=O)(=O)CC(=O)NC(C)CCc1ccccc1 (stereo not drawn),0%,nt,-7.9%,?,-14%[46.1 µM],?,nt,nt
COc1ccc(CCNC(=O)CSc2n[nH]c(N)n2)cc1OC,-5%,7%,nt,nt,nt,24%[46.1 µM],8%,1%
O=C(CSc1ccc2nnc(-c3ccccn3)n2n1)NCC1CCCO1 (stereo not drawn),-2%,-1%,2.6%,-2%,nt,nt,4%,5%
COC(=O)C1=C(C)N(CCCC(=O)O)C(=O)NC1c1cccs1 (stereo not drawn),-16%,-7%,2.2%,-4%,?,21%,-9%,-4%
COc1cc(OC)c(NC(=O)c2c(C)oc3ncnc(N4CCCCC4)c23)cc1Cl,-18%,nt,0.7%,-8%,30%[46.1 µM],nt,nt,nt
Cc1cc(=O)[nH]c(N/N=C/CCc2ccccc2)n1,-9%,5%,nt,nt,25%[46.1 µM],0%[46.1 µM],nt,0%
